VACV mCherry inh – qHTS for Stage-Specific Inhibitors of Vaccinia Orthopoxvirus: mCherry Reporter Primary qHTS; Vaccinia virus mCherry reporter infection, fluorescence; about a quarter of the inactives have no number; Potency, µM (doses to about 36.5 µM), for inactives: at the highest dose activity change, negative = inhibition, usual class: inhibitors; 310,000 compounds, 0.63% hits; AID 720579, 2013; active = well fitted inhibition curve with a large enough effect; inconclusive = small, poorly fitted or top-dose-only effect; inactive = no such curve, though single readings can be large or run the other way; tested in A549 cells; further: nearly all actives have a fitted effect of over 35% in size; inactives centre near -10
VACV Venus inh – qHTS for Stage-Specific Inhibitors of Vaccinia Orthopoxvirus: Venus Reporter Primary qHTS; Vaccinia virus Venus reporter expression, fluorescence; Potency, µM (top dose mostly 36.5 µM), inactives show top-dose activity change, negative = inhibition, most hits filed as inhibitors; 330,000 compounds, 0.46% hits; active means well fitted inhibition curve with a large enough effect; inconclusive means small, poorly fitted or top-dose-only effect; inactive means no such curve, though single readings can be large or run the other way; tested in A549 cells; further: nearly all actives have a fitted effect of over 30% in size; inactives centre near -10
Active calls of the source: *; i = inactive; ? = inconclusive; / = not tested or not shown; & = joins results of further samples; [ ] = dose if it differs, or a comment. On the % scale 0 is the no-effect control and ±100 the full control effect; potency means the concentration at half of the fitted maximal effect.

SMILES	VACV mCherry inh	VACV Venus inh
CC(=O)C1CCC2C3CCC4CC(OC(=O)CCC(=O)O)CCC4(C)C3C(=O)CC12C (stereo not drawn)	i	-4%
CCCCc1ccc(NC(=O)OC)cc1	/	-16%
O=C(NCCC1=CCCCC1)c1cc(S(=O)(=O)N2CCCCC2)ccc1Cl	-25%	-10%
COC(=O)c1cc2c(=O)c3ccccc3oc2nc1C	-9%	-2%
C=C(C)Cn1c2ccc(NC(=O)NCCc3ccccc3)cc2c(=O)n1C	6%	-6%
O=S(=O)(NCCc1csc2nc(-c3ccc(F)cc3)nn12)c1ccc(Br)cc1	-10%	-15%
COc1cccc(C(=O)Nc2ccc(S(=O)(=O)Nc3nccc(C)n3)cc2)c1	-14%	-4%
COc1cc(C(=O)Nc2nc(C)cc(C)n2)cc(OC)c1OC	-13%	-11%
CCOC(=O)/C(=N\Nc1ccc(Br)cc1)N1CC(C)OC(C)C1 (stereo not drawn)	-28%	-3%
CCOC(=O)C(=Cc1ccc(N(C)C)cc1)C(=O)c1ccccc1	38%[activator]	1%
O=C1/C(=C\c2cc(Cl)c(O)c(Cl)c2)SC(=S)N1Cc1ccccc1	-5%	/
CN(C)Cc1ccc(F)cc1Sc1ccc(Cl)cc1Cl	-10%	-20%
CCC(=O)Nc1ccc(OCc2nc3ccccc3s2)cc1	-6%	2%
COc1ccc(C(=O)NCc2nc3ccccc3[nH]2)cc1OC	-17%	-1%
COc1ccc(-c2nn(-c3ccccc3)cc2C(=O)n2nnc3ccccc32)cc1	-14%	-5%
O=C(Cn1cc2c(n1)CCCC2)N1CCc2ccccc21	-5%	-5%
CC(C)CCNC(=O)c1ccc2c(SCC(=O)O)c3c(nc2c1)CCC3	i	-4%
Cc1ccc(-c2csc(C3=C(O)CN(NC(=O)c4ccc([N+](=O)[O-])cc4)C3=N)n2)cc1	-8%	-22%
O=C(O)CN(c1ccccc1)S(=O)(=O)c1cc(C(F)(F)F)cc(C(F)(F)F)c1	i	-1%
Cn1c(=O)c2c(nc(Sc3nc4ccccc4n3CC(=O)N3CCCCC3)n2C)n(C)c1=O	/	-12%
COCC(=O)N(Cc1cc2cc(OC)ccc2[nH]c1=O)c1ccccc1OC	/	-28%
O=C(NCC1CCCN(C(=O)c2cc(Cl)ccc2F)C1)c1ccc(F)cc1 (stereo not drawn)	i	-14%
NC(=O)c1sc2nc3c(c(-c4ccco4)c2c1N)CCC3	?	?
COc1cccc(CN2CCC2(C)C(=O)Nc2ccc(Cl)c(Cl)c2)c1F (stereo not drawn)	i	2%
CCOc1ccc(N/C=C/C(=O)c2ccccc2)c([N+](=O)[O-])c1	-14%	-15%
COc1ccccc1Cc1c(-c2ccc(OC)c(OC)c2)nc2ccc(C)cn12	i	-5%
O=C(O)c1ccc(N/N=C/c2cc(Br)cs2)cc1	3%	8%
CSc1ccccc1NC(=O)COC(=O)CCC(=O)c1ccc(F)cc1	-11%	-6%
C=CCn1c(=O)c(C(=O)Nc2ccccc2C(=O)OCC)c(O)c2ccccc21	/	-2%
O=C(Cc1ccccc1)NC(=S)Nc1cc(C(F)(F)F)ccc1Cl	/	7%
CNS(=O)(=O)c1ccc(OC)c(-c2nnc3c4ccccc4c(C)nn23)c1	-13%[7.34 µM]	-13%[7.34 µM]
COc1ccccc1N1CCN(C(=S)Nc2ccc3nc(N4CCOCC4)cc(C)c3c2)CC1	-19%	-18%
COc1ccc(CNC(=O)CN(C)S(=O)(=O)c2ccc3nc(C)sc3c2)cc1	2%	-8%
N#Cc1c(-c2ccccc2)nc(SCC(=O)Nc2ccccc2F)[nH]c1=O	-8%	2%
CC1=CC(C)(C)N2C(=O)C3(N=C(N)NC(Nc4ccccc4)=N3)c3cc(C)cc1c32 (stereo not drawn)	/	-18%
CC1(c2nnc(-c3cccc(Cl)c3)o2)CC(c2cccc([N+](=O)[O-])c2)=NO1 (stereo not drawn)	?	-18%
COc1ccc(C2CC3(CC(C)(C)NC(=S)N3)Oc3cc(O)cc(C)c32)cc1 (stereo not drawn)	i	-17%
COc1cccc(N2C(=O)NC(=O)/C(=C/c3ccc([N+](=O)[O-])s3)C2=O)c1	27%	128%[activator]
COc1cccc2c1cc1c(=O)n(CC(=O)N3CCN(c4cccc(Cl)c4)CC3)nc(C)n12	-19%	-11%
O=C(OCc1nc2ccccc2s1)c1ccc([N+](=O)[O-])o1	-6%	-16%

Sorted by SMILES length (ascending): some entries from above
SMILES	VACV mCherry inh	VACV Venus inh
O=C(OCc1nc2ccccc2s1)c1ccc([N+](=O)[O-])o1	-6%	-16%
COc1ccc(CNC(=O)CN(C)S(=O)(=O)c2ccc3nc(C)sc3c2)cc1	2%	-8%
COc1ccc(C2CC3(CC(C)(C)NC(=S)N3)Oc3cc(O)cc(C)c32)cc1 (stereo not drawn)	i	-17%
COc1cccc(N2C(=O)NC(=O)/C(=C/c3ccc([N+](=O)[O-])s3)C2=O)c1	27%	128%[activator]
CC1=CC(C)(C)N2C(=O)C3(N=C(N)NC(Nc4ccccc4)=N3)c3cc(C)cc1c32 (stereo not drawn)	/	-18%

The results go on:
SMILES	VACV mCherry inh	VACV Venus inh
CCN(CC)S(=O)(=O)c1ccc(NC(=O)CSc2nnc(-c3ccc(F)cc3)o2)cc1	-24%	3%
CC(C)NC(=O)C1(C)CCN1C(=O)Cc1ccc(-c2ccccc2)cc1 (stereo not drawn)	27%	-13%
Cc1cccc(N(CC(=O)NCCSCc2cccc(Cl)c2)S(=O)(=O)c2ccccc2)c1C	-29%	-20%
CCOc1ccccc1N1CCN(C(=O)CSc2ccc3c(c2)OCCO3)CC1	-1%	-7%
O=c1c(-c2ccnn2-c2ccc(F)cc2)cnc2n1CCS2	-9%	-2%
c1ccc2c(c1)Nc1cc3ccccc3cc1S2	-13%	7%
Cc1ccc(-c2cn3c(n2)sc2cc(C(=O)NC(C)C45CC6CC(CC(C6)C4)C5)ccc23)cc1 (stereo not drawn)	-10%	-11%
COc1cc(CNc2ccc(C)c(C)c2)cc(OC)c1OC	-16%	?
Cn1c(=O)c2c(SCC(=O)NCC3CCCO3)nc(-c3ccccc3F)nc2n(C)c1=O (stereo not drawn)	-5%	-5%
CCO[C@@H]1OC(C(=O)N2CCN(Cc3ccccc3)CC2)=C[C@H](c2ccc(Br)cc2)[C@H]1CCCO	-12%	-23%

Profiles from above. Values in the order: VACV mCherry inh, VACV Venus inh
Entry for O=C(OCc1nc2ccccc2s1)c1ccc([N+](=O)[O-])o1 : -6%, -16%
Entry for COc1cccc(C(=O)Nc2ccc(S(=O)(=O)Nc3nccc(C)n3)cc2)c1 : -14%, -4%
Entry for CC(=O)C1CCC2C3CCC4CC(OC(=O)CCC(=O)O)CCC4(C)C3C(=O)CC12C (stereo not drawn) : i, -4%

The list goes on.
SMILES	VACV mCherry inh	VACV Venus inh
NS(=O)(=O)c1ccc(N=Nc2c(=O)[nH]n3c(=O)c4c([nH]c23)CCCC4)cc1	-18%	-4%
Cc1ccc(NC(=O)Cn2c(=O)nc(-c3ccccc3)c3ccccc32)cc1	-15%	-8%
C=CCNC(=S)Nc1sc2c(c1C#N)CCCC2	-13%	-18%
CC1=NN(Cc2c(C)nn(Cc3ccccc3)c2C)C(C)(C)C1	i	0%
C=CCn1cccc(C(=O)Nc2ccc(C)cc2)c1=O	i	-12%
O=C(/C=C/Nc1ccc([N+](=O)[O-])cc1)c1ccc(Br)cc1	-12%	-14%
Cc1ccc(NC(=O)c2ccc(OCC3CCCO3)cc2)cc1 (stereo not drawn)	i	-9%
CC(C)C(N)c1csc(Nc2ccc(S(C)(=O)=O)cc2)n1 (stereo not drawn)	8%	-3%
O=C(/C=C/c1ccco1)Nc1ccccc1C(=O)O	-4%	-3%
COc1ccc(S(=O)(=O)N2CCC(C(=O)NCc3cccs3)CC2)cc1	-3%	-12%
O=C1C2CCCCN2C(=O)N1CCCN1CCN(c2cccc(C(F)(F)F)c2)CC1 (stereo not drawn)	-4%	-5%
COc1cc(CN2CCC(C(=O)N3CCCC(C)C3)CC2)cc(OC)c1O (stereo not drawn)	i	-3%
Cc1nc(N)sc1C(=O)N1N=N1	-29%	-12%
COC(=O)C1=C(C)NC(=O)NC1c1cn(-c2ccccc2)nc1-c1ccc(OC)c(Cl)c1 (stereo not drawn)	-1%	-16%
COc1cccc(-c2ccnc(-n3ncc(C(=O)NCC(C)(C)CN(C)C)c3C)n2)c1	-14%	-11%
CN(C)C(=O)CSc1nnc(CCN)o1	-12%	-7%
CCC(=O)N1CCc2cc(Br)cc(S(=O)(=O)NCc3cccc(OC)c3)c21	1%	10%
CCOc1ccc2nc(NC(=O)CN3C(=O)C4CCCCC4C3=O)sc2c1 (stereo not drawn)	?	-11%
CCn1c(SCc2ccccc2)nnc1-c1nonc1NC(C)=O	-3%	-13%
CCCCCCC(=O)N/N=C/c1ccco1	i	-7%
CCOc1ccc(CN(CCO)CCO)cc1[N+](=O)[O-]	-18%	-7%
COc1c(N2CCNC(C)C2)c(F)cc2c(=O)c(C(=O)O)cn(C3CC3)c12 (stereo not drawn)	-9%&-15%	-8%&-14%
N#C/C(=C/c1ccc(O)cc1)C(=O)NCc1ccc(Cl)cc1	-12%	-19%
CCOc1ccccc1NC(=O)C(C)Sc1nc(-c2ccccc2)c(C#N)c(=O)[nH]1 (stereo not drawn)	-6%	-14%
CCN1CCN(C(=O)C2CC(=O)N(c3ccc(Cl)cc3)C2)CC1 (stereo not drawn)	1%	10%
CCOC(=O)C1=CCN(S(=O)(=O)c2ccccc2F)C1c1ccc(F)cc1 (stereo not drawn)	i	-6%
Cc1ccc(S(=O)(=O)Nc2nc3n(n2)C(c2ccccc2Cl)C=C(c2ccccc2)N3)cc1 (stereo not drawn)	2%	0%
CCOc1ccc(N2CC(C(=O)Nc3cc(Cl)ccc3-n3cncn3)CC2=O)cc1 (stereo not drawn)	i	-15%
CC(C)N1CCN(Cc2ccoc2)CC1CCO (stereo not drawn)	i	-7%
COc1ccc2cc3cc(C(=O)NCCc4ccc(OC)c(OC)c4)oc3nc2c1	-12%	?
CC(C)(O)c1cc2ccccc2c(=O)o1	i	-16%
COc1ccc(C2CC(c3ccc(Br)cc3)=NN2C(=O)CCC(=O)O)cc1OC (stereo not drawn)	i	-12%
CCOC(=O)Cc1csc(NC(NC(=O)CC)(C(F)(F)F)C(F)(F)F)n1	/	-29%
CC(CCc1ccccc1)NC(=O)C1CCN(S(=O)(=O)N2CCOCC2)CC1 (stereo not drawn)	-9%	3%
COC1CCCCC1Nc1cccc(SC)c1 (stereo not drawn)	-12%	5%
O=C(C(=O)N1CCCc2ccccc21)c1c[nH]c2ccccc12	-16%	-15%
CN(CCCCCCCCCCN(C)C(=O)Oc1cccc([N+](C)(C)C)c1)C(=O)Oc1cccc([N+](C)(C)C)c1	-18%	-13%
Cc1cccc(C(=O)NC(NCc2ccco2)C(Cl)(Cl)Cl)c1 (stereo not drawn)	/	-6%
CN1CC(=O)Nc2ccccc2C1=O	-10%	-6%
O=C(COC(=O)c1ccc([N+](=O)[O-])o1)Nc1cccc2ccccc12	-20%	-29%
CCCS(=O)(=O)Nc1cc(-c2cn3cccc(C)c3n2)ccc1C	-20%	-16%

3 entries picked at random from the list so far:
SMILES	VACV mCherry inh	VACV Venus inh
Cc1ccc(S(=O)(=O)Nc2nc3n(n2)C(c2ccccc2Cl)C=C(c2ccccc2)N3)cc1 (stereo not drawn)	2%	0%
CC(CCc1ccccc1)NC(=O)C1CCN(S(=O)(=O)N2CCOCC2)CC1 (stereo not drawn)	-9%	3%
CCOc1ccc(CN(CCO)CCO)cc1[N+](=O)[O-]	-18%	-7%

Source: PubChem BioAssay (National Center for Advancing Translational Sciences (NCATS))
